Screens as filed in PubChem BioAssay.
TRPV1 potentiator = enhances activation of the human vanilloid receptor TRPV1; TRPV1-expressing cells, Fluo-8 calcium influx, capsaicin EC20 potentiation; host cell line not named in the record; control for the full effect not named in the record; potentiation, % at 8.33 µM; hit rate 0.02% among 320,000; active means potentiation above 80%; inconclusive means 30% to 80%; inactive means below 30%; further: 0% is about no effect
Target sequence (Q8NER1 whole entry, looked up): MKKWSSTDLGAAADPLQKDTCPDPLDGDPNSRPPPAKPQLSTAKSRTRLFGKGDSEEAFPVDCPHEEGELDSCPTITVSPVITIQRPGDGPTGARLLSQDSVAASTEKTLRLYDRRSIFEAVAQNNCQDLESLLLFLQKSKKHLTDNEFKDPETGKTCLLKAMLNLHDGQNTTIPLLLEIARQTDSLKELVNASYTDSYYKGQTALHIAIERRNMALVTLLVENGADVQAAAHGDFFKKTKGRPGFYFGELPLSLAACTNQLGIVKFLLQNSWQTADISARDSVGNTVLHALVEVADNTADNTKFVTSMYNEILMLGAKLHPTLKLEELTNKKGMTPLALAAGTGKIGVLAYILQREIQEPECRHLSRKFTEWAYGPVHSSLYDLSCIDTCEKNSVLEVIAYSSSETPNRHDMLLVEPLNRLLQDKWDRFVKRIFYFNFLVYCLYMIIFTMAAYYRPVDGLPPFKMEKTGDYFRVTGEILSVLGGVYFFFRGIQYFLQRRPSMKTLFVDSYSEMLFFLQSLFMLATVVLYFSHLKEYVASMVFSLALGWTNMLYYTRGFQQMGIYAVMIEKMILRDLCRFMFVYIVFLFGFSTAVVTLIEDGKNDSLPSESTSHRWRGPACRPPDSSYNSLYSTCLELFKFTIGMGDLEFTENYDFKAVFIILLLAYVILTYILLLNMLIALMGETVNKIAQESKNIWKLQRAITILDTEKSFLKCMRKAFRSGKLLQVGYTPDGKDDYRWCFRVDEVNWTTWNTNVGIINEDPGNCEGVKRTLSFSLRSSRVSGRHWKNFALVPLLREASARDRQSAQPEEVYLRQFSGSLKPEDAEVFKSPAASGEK
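Fluo-8 calcium influx in TRPV1-expressing cells, kinetic read (ex 480/em 520 nm). Compound added and read 3 min for agonist activity, followed by capsaicin at EC20 final and 2 min further read for enhancement.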
gsp ag = agonists of gsp mutant (McCune-Albright syndrome); gsp mutant cells, cAMP HTRF, 30 min; control for the full effect not named in the record; Potency, µM (doses to about 76.9 µM), for inactives: at the highest dose activation (cAMP increase), most hits filed as activators; hit rate 0.13% among 340,000; active = well fitted activation curve with a large enough effect; inconclusive = small, poorly fitted or top-dose-only effect, or another doubt; inactive = no such curve, though single readings can be large or run the other way; cell line not stated here;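 further: phosphodiesterase inhibitor Ro 20-1724 added with compounds to block cAMP breakdown; potency means the concentration at half of the fitted maximal effect; nearly all actives have a fitted effect of over 60% in size; about a fifth of the inactives were tested at one dose only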
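Cells stably selected in G418 were plated at 2000/well, grown 16-24 hr, then given compounds in DMSO with the PDE inhibitor […] (300 uM solution added) for 30 min at 37C; cAMP was read by HTRF.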
ClpP mod = qHTS Assay for Activators of ClpP. ATP-dependent Clp protease proteolytic subunit (Bacillus subtilis (strain 168)), P80244. purified B. subtilis ClpP, FRET peptide cleavage, 20 min. Potency, µM (doses to about 57.5 µM), without a hit: at the top dose activity change, negative = active. hit rate 1.9% among 340,000. AID 651965, 2013; active = well fitted falling curve with a large enough effect; inconclusive = small, poorly fitted or top-dose-only effect; inactive = no such curve, though single readings can be large or run the other way; further: potency means the concentration at half of the fitted maximal effect; the source files actives as falling curves though it sought activators and does not explain the sign; nearly all actives have a fitted effect of over 65% in size; many hits overshoot -100%
Target sequence (P80244 whole entry, looked up): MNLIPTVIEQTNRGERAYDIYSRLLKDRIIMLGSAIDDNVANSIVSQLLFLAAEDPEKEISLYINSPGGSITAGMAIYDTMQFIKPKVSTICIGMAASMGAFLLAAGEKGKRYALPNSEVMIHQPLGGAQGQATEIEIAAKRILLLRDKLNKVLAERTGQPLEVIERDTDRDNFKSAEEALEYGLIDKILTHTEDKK
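Purified B. subtilis ClpP, 10 microg/mL final in Tris/HCl pH8 with KCl, BSA, glycerol and Tween-20, cleaved an Abz/nitrotyrosine-quenched decapeptide. Fluorescence (ex 320, em 430) was read at 0 and 20 min at room temperature. Delta was normalized to 5.8 microM ADEP and DMSO/no-enzyme controls.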
CtBP-E1A blk = blocks the CtBP interaction with E1A; AlphaScreen GST-E1A/His-CtBP binding, 1536-well; active compounds read low; control for the full effect not named in the record; activity change, % (no concentration beside the values); hit rate 0.49% among 340,000; in the data active means activity change below about -65%; inconclusive means about -30% to -65%; inactive means above about -30%; further: on the % scale 0 is the no-effect control and ±100 the full control effect
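GST-E1A and His-tagged CtBP (125 nM each as 5X stock) were preincubated with pin-transferred compound for 2 h at 37 °C in the dark, then glutathione donor and nickel acceptor beads were added for 1 h before AlphaScreen reading.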
gsp antagonist = antagonizes gsp, the McCune-Albright syndrome mutation; Potency, µM (titrated, usually from 76.9 µM), without a hit: at the highest dose activity change, negative = inhibition, usual class: inhibitors; gsp-mutant cells, cAMP HTRF, 30 min; control for the full effect not named in the record; AID 624288; hit rate 0.4% among 340,000; active = falling curve of any shape with a large fitted effect; inconclusive = falling curve, mostly with a smaller effect; inactive = flat or rising curve; cell line not stated here;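 further: intracellular cAMP measured with PDE inhibitor Ro 20-1724 present during compound exposure; potency means the concentration at half of the fitted maximal effect; on the % scale 0 is the no-effect control and ±100 the full control effect; nearly all actives have a fitted effect of over 65% in size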
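G418-selected cells were plated in DMEM/10% FBS for 16-24 h at 37C, then treated with compounds plus the PDE inhibitor […] (300 uM solution added) for 30 min at 37C. Intracellular cAMP was measured by HTRF after 30 min lysis at room temperature.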
Sfp PPTase inh = blocks B. subtilis Sfp PPTase activity; Biochemical Sfp PPTase activity, qHTS; Potency, µM, inactives show max response, negative = inhibition, usual class: inhibitors; hit rate 3.5% among 310,000; AID 1490; active means well fitted inhibition curve with a large enough effect; inconclusive means small, poorly fitted or top-dose-only effect, or another doubt; inactive means no such curve, though single readings can be large or run the other way;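 further: the enzyme is Sfp with the accession as filed and its product quenches rhodamine fluorescence; potency means the concentration at half of the fitted maximal effect; 0% = enzyme reaction without inhibitor and -100% = no enzyme wells; top concentration of the series not given in the record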
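Reaction rates are the 30-min fluorescence difference (ex 525, em 598 nm) in wells containing 15 nM Sfp, 5 uM rhodamine-CoA and 12.5 uM BHQ-2-YbbR at pH 7.6 with 10 mM MgCl2.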
Menin-MLL FL inh = menin-MLL binding inhibition, fluorescein peptide; Fluorescence polarization, fluorescein-MLL peptide displacement from menin; FP activity change, % at 61.4 µM; 290,000 tested, under 10 active; AID 1766; inconclusive = falling polarisation curve, or a change in total fluorescence; inactive = total fluorescence flat and polarisation flat or rising; no compound was filed as active; the % refers to the polarisation; negative = inhibition;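 further: % of control where 0% means no effect; inhibitors lower the polarisation; unlabelled MLL peptide was the positive control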
The depositor's hits bear a star; ? = inconclusive; / = not tested or not shown; [ ] = remark or other dose.

SMILES | TRPV1 potentiator | gsp ag | ClpP mod | CtBP-E1A blk | gsp antagonist | Sfp PPTase inh | Menin-MLL FL inh
CC1CCCC(NC(=O)c2ccc3c(c2)NC(=O)CS3)C1C (stereo not drawn) | -2 | -12% | -0.1% | / | 3% | 11% | /
O=C1C=C(NC(=O)Nc2ccc(Cl)c(Cl)c2)CCC1 | -2 | 4%[15.4 µM] | / | / | -12% | 14% | 1.3
Cc1ccc(-c2nn(CC(=O)NCCN3CCOCC3)c(=O)c3ccccc23)cc1 | 5 | 4% | -5.8% | 0 | -1% | 5% | 2.5
O=C(N/N=C\c1ccc(Sc2ccccn2)o1)c1cccc(Br)c1 | -2 | -15% | -0.2% | -15 | -4% | 0% | 1.1
O=Cc1ccc(F)c([B-](F)(F)F)c1 | / | / | -0.6% | -4 | -5% | / | /
C#CCOCCOCCOCCNc1nc(N2CCN(C(=O)CCCCCCCCCCNC(=O)Cn3cc(CCCCCN)nn3)CC2)nc(N2CCN(C(=O)CCCCCCCCCCNC(=O)[C@H]([C@@H](C)CC)n3cc(CCCCCN)nn3)CC2)n1 | ? | / | 1.1% | -14 | 4% | / | /
NC(N)=N/N=C/c1ccccc1OC(F)F | -1 | -2%[15.4 µM] | -1.9% | 16 | 16% | 6% | -0.4
CCOc1ncccc1C(=O)OCC(=O)Nc1cc(C(C)(C)C)ccc1OC | / | -3%[15.4 µM] | 2.6% | 0 | -20% | / | /
CC(=O)Nc1ccc(Nc2c([N+](=O)[O-])c(=O)n(-c3ccccc3)c3ccccc23)cc1 | 0 | -3%[15.4 µM] | / | 16 | 13% | -10% | -3.4
CCCCN(C)CCCNC(=O)C1(O)c2ccccc2NC(=O)N1c1ccc(Cl)cc1 (stereo not drawn) | 5 | 2% | -1.0% | / | 8% | 9% | 0.0
CCCC(c1nnnn1CC(=O)OCC)N(Cc1cc2c(C)cc(C)cc2[nH]c1=O)C1CCCC1 (stereo not drawn) | 1 | 1% | ? | 2 | 13% | -13% | 2.7
COc1ccccc1-c1c(C#N)c(N)nc2c1CCC2 | / | 4%[15.4 µM] | 0.0% | 9 | -6% | 14% | 4.0
O=C(NCC(c1ccco1)N1CCCC1)c1ccc(Cl)c(S(=O)(=O)N2CCc3ccccc32)c1 (stereo not drawn) | 5 | 3% | -4.4% | ? | -13% | / | /
CCN1C(=O)C2(C(C(=O)c3ccc(C)o3)=C(O)C(=O)N2CCCN(C)C)c2ccccc21 (stereo not drawn) | -1 | ? | / | 8 | 8% | -15% | -1.9
CCOCCOC(=O)C(C)Sc1n[nH]c(=O)[nH]c1=O (stereo not drawn) | 2 | ? | -1.5% | 0 | 6% | ? | -1.0
CCn1c(CSc2nc3ccccc3s2)nnc1SCC(=O)c1ccc2c(c1)OCCO2 | 12 | -8% | -4.6% | -14 | ? | -6% | 1.1
Cc1nn(CC(=O)Nc2nnc(CC(=O)N3CCCC3)s2)c(=O)c2ccccc12 | 4 | ? | -1.8% | -2 | 2% | 7% | 4.2
CC(=O)Nc1ccccc1-c1nc2ccc(C(=O)N3CCN(c4cccc(C)c4)C(C)C3)cc2[nH]c1=O (stereo not drawn) | 14 | -15% | -22% | -24 | -17% | -4% | 1.1
O=C1c2nccnc2C(=O)N1c1ccc(F)cc1 | 5 | -9%[15.4 µM] | / | -3 | -25% | 12% | -3.8
COc1ccc(CNC(=O)C2CC(c3ccc(C(F)(F)F)cc3)=NO2)cc1 (stereo not drawn) | ? | / | -1.8% | 6 | 4% | 9% | 2.9

Next part, starting with the last four of the part before.
SMILES | TRPV1 potentiator | gsp ag | ClpP mod | CtBP-E1A blk | gsp antagonist | Sfp PPTase inh | Menin-MLL FL inh
Cc1nn(CC(=O)Nc2nnc(CC(=O)N3CCCC3)s2)c(=O)c2ccccc12 | 4 | ? | -1.8% | -2 | 2% | 7% | 4.2
CC(=O)Nc1ccccc1-c1nc2ccc(C(=O)N3CCN(c4cccc(C)c4)C(C)C3)cc2[nH]c1=O (stereo not drawn) | 14 | -15% | -22% | -24 | -17% | -4% | 1.1
O=C1c2nccnc2C(=O)N1c1ccc(F)cc1 | 5 | -9%[15.4 µM] | / | -3 | -25% | 12% | -3.8
COc1ccc(CNC(=O)C2CC(c3ccc(C(F)(F)F)cc3)=NO2)cc1 (stereo not drawn) | ? | / | -1.8% | 6 | 4% | 9% | 2.9
CC12COC3(C(=O)Nc4nccs4)CC1CCC32C (stereo not drawn) | -3 | 0% | 1.2% | 9 | 2% | 23% | -0.8
COC(=O)c1ccc(OC(=O)CCc2cc(OC)c(OC)c(OC)c2)cc1 | -8 | 7% | -2.1% | -11 | 10% | -5% | 0.6
Cn1c(SCC(=O)Nc2ccc3c(c2)CCC3)nnc1C1CC1 | -13 | -3% | 0.5% | 12 | 7% | / | /
Cc1ccc(NC(=O)CN2CCC(NC(=O)c3cccc(F)c3)CC2)cc1C | 0 | 3% | -0.7% | / | 5% | 7% | 2.4
CCCn1c(NCc2cccc(OC)c2OC)nc2ccccc21 | 12 | -5% | -0.5% | -1 | -18% | 13% | 1.8
Cc1ccccc1C(=O)N/N=C/c1ccc(OCC(=O)N2CCCCC2)cc1 | 26 | 1% | -3.7% | -1 | -7% | 7% | -1.2
CCCC(=O)NC(=S)N1CCN(c2ccc([N+](=O)[O-])cc2)CC1 | -19 | 29% | -2.3% | 7 | -9% | 4% | -5.4
CCOC(=O)c1cnc2c(C)cc(C)cc2c1NCCCN1CCOCC1 | -19 | 12% | -18% | / | -19% | 13% | 0.6
Cc1ccc(-c2noc(CN(C)C(=O)Nc3ccc(F)cc3)n2)cc1 | -7 | 17%[15.4 µM] | / | 3 | -15% | 11% | 3.6
O=C1CN2NC(=S)N(c3ccc(Cl)cc3)C2=CN1c1ccc(Cl)cc1 | -4 | -33%[inhibitor] | 0.1% | / | 9% | 21% | 0.4
COc1ccc(C(=O)NCc2nnc(SCC(=O)Nc3cc(OC)ccc3OC)o2)cc1 | 10 | 5% | -1.3% | -11 | 0% | 14% | 2.6
COc1ccc(C(CNc2ccc(S(C)(=O)=O)cc2[N+](=O)[O-])N(C)C)cc1OC (stereo not drawn) | -3 | -81%[inhibitor] | / | -15 | -7% | 21% | 0.2
Cc1cccc(C)c1NC(=O)Cn1c(=O)c2cccn2c2ccccc21 | 2 | ? | -7.1% | -3 | 13% | -24% | 7.6
Cc1ccccc1CC(=O)NC1CCN(C)CC1 | 6 | -14% | / | 3 | 13% | 9% | 3.6
COc1cc2c(cc1OC)[C@H](C)N(C(=O)COc1ccccc1)CC2 | -11 | -8% | -0.3% | / | -10% | 6% | -2.1
CC(=O)C1=C(O)C(=O)N(c2cccc(Br)c2)C1c1ccccc1Cl (stereo not drawn) | 4 | ? | / | 0 | 9% | 11% | -2.5
CCC1=C/C(=C/c2sc3ccccc3[n+]2CC)CC(C)(C)C1 | -19 | -1% | / | 4 | -11% | 35µM* | 18
CC(C)NC(=O)NC(=O)COC(=O)Cc1c(F)cccc1Cl | 2 | -49%[inhibitor] | / | 0 | 3% | 10% | -1.7
COCCN(C(=O)/C=C/c1ccccc1)c1c(N)n(Cc2ccccc2)c(=O)[nH]c1=O | -7 | -17% | -1.1% | -11 | 10% | 13% | 1.2
CCn1nc(C)c(Br)c1C(=O)Sc1ccccc1Cl | 3 | 1%[15.4 µM] | / | 3 | -9% | ? | -1.7
CSC1CCCCC1(O)CSc1nc2c(cc1C#N)CCCC2 (stereo not drawn) | -1 | -23% | -3.0% | 0 | -19% | 50µM* | 5.1
C=CCn1c(NCc2cc(Cl)ccc2O)nc2ccccc21 | 4 | -37%[inhibitor] | / | -13 | -20% | 6% | -2.9
O=C(Nc1ccc(-n2cnnn2)cc1)C1CCCCC1 | -2 | -7% | -4.2% | 16 | -1% | 1% | 1.6
CCOc1ccc(-c2noc(CCC(=O)NC3CCCCC3)n2)cc1OC | 27 | 11%[15.4 µM] | -0.5% | 22 | -12% | 2% | 1.3
O=C1c2cccnc2C(=O)N1Cc1ccc(S(=O)(=O)N2CCN(c3ccccc3)CC2)cc1 | 2 | ? | 0.5% | -2 | 3% | 7% | -6.7
Cc1ccc(-c2nnc(NC(=O)CCS(=O)(=O)c3ccc(F)cc3)o2)c(C)c1 | 11 | 1%[15.4 µM] | -7.5% | 2 | 5% | / | /
O=C(Nc1cc(Cl)cc(Cl)c1)C(NCC1CCCO1)c1ccccc1 (stereo not drawn) | 6 | -1% | -0.8% | 4 | -22% | 10% | 5.0
Cc1ccc(-n2nc3c(=O)n(C(C)C(=O)NCc4ccc5c(c4)OCO5)nc(C)c3c2C)cc1 (stereo not drawn) | 8 | -42% | -0.2% | -9 | -32% | -3% | 0.1
C[C@H](CO)N1C[C@H](C)[C@@H](CN(C)C(=O)Nc2ccc3c(c2)OCCO3)OCc2cnnn2CCCC1=O | / | 4% | 1.7% | 6 | / | / | /
CS(=O)(=O)N1N=C(c2cccs2)CC1c1ccc(F)cc1 (stereo not drawn) | -2 | 20% | -9.8% | -18 | -4% | -6% | 6.4
Cc1cc(Nc2ccc3c(c2)OCCO3)c2ccccc2n1 | 7 | 10% | -0.4% | 16 | 9% | ? | 5.7
CCOC(=O)CN=C1CC(C)(C)CC2=C1Sc1ncnc(N(C)C)c1N2 | 10 | ? | -1.9% | -4 | 0% | 10µM* | ?

Sfp PPTase inh, what is marked active above.
Molecule,gsp ag,CtBP-E1A blk,gsp antagonist,Sfp PPTase inh,Menin-MLL FL inh
CCC1=C/C(=C/c2sc3ccccc3[n+]2CC)CC(C)(C)C1,-1%,4,-11%,35µM*,18
CSC1CCCCC1(O)CSc1nc2c(cc1C#N)CCCC2 (stereo not drawn),-23%,0,-19%,50µM*,5.1
CCOC(=O)CN=C1CC(C)(C)CC2=C1Sc1ncnc(N(C)C)c1N2,?,-4,0%,10µM*,?

Compounds were not picked by outcome. About 5.3% of those tested had a hit in this group.
